YopH inh: inhibitors of Yersinia enterocolitica YopH tyrosine phosphatase | fluorescence Ex485/Em525 | 140,000 compounds, 0.16% hits | AID 898 | inhibition, %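 (about 10 µM by stock and volumes)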;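 active = inhibition of 50% or more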;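 note: controls were vehicle for no effect and minimum signal wells for full effect; inactives centre near -20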
Mtb growth: M. tuberculosis H37Rv growth inhibitors, H37Rv strain (AID 1626) | M. tuberculosis H37Rv growth inhibition; higher % means a stronger effect | 220,000 compounds, 0.95% hits | one-dose inhibition, % at 10 µM; IC50 in µM for titrated hits;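 active = confirmed in a dose series; inconclusive = inhibition above 80% but not taken into the dose series; inactive = below 80% or under 30% at every dose of the series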;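 note: bacteria incubated seven days before Alamar blue readout; 0% = bacteria only wells and 100% = bacteria with antibiotic wells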
Mtb betalactam: beta-lactam sensitization of Mtb H37Rv; AID 434955; 330,000 compounds, 0.27% hits; inhibition, % at 25 µM; M. tuberculosis H37Rv growth with meropenem, percent inhibition; hits of this screen are not shown here;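 active = about 74% or more and at least 40 points above the plate without the antibiotic, then above 30% in a dose series; inconclusive = first-round hits that could not be retested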;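 note: growth measured after seven days incubation then overnight dye step; 0% = bacteria only wells and 100% = bacteria with antibiotic; twin plates without the antibiotic show which effects depend on it; some results filed as inactive read as strong as hits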
RecA intein inh: inhibitors of M. tuberculosis RecA intein splicing; P9WHJ3; cell-free RecA intein splicing, fluorescence; inhibition, %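 (about 9 µM by stock and volumes)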; 290,000 compounds, 0.75% hits; in the data active = inhibition above about 30%; inconclusive = no clear call, values can overlap the other calls;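 note: 0% = vehicle wells and 100% = reference inhibitor control wells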
Target sequence (P9WHJ3 whole entry, looked up): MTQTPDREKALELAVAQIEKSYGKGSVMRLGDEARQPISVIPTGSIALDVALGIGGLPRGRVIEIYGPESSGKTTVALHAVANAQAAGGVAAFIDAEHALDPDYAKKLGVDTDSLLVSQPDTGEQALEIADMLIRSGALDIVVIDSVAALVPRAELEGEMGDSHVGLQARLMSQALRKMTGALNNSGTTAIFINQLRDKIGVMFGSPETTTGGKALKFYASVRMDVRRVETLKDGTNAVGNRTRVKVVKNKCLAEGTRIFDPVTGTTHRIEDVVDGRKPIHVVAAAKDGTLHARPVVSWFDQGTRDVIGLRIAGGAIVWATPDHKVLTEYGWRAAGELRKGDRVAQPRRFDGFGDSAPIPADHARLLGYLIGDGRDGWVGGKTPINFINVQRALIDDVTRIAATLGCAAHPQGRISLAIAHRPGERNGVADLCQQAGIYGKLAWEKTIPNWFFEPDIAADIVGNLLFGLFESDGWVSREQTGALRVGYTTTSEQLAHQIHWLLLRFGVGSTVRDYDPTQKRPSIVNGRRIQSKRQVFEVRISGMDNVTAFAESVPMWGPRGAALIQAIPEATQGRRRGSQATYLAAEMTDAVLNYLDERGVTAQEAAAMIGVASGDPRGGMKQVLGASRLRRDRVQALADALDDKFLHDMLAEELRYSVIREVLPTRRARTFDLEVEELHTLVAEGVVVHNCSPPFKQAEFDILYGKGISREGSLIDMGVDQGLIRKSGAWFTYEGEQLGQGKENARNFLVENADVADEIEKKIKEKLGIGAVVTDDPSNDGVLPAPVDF
Arbovirus anti: blocks arbovirus infection | arbovirus infection cell-based antiviral screen | inhibition, % at 10 µM | 200,000 compounds, 0.37% hits | AID 1251;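 active = inhibition from about 30%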;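 note: bluetongue infection of BSR cells; cell survival read as ATP light after 72 h; 0% = infected wells without compound and 100% = uninfected wells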
Arbovirus anti repeat: second read-out of Arbovirus anti, no call of its own (marks repeat the call); inhibition, %; measured here: 10K subset replicate screen; many hits read low in the repeat;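 first of two repeat runs on a subset; 0% = infected and 100% = uninfected wells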
* hit, by the source's call; ? = inconclusive; / = no result given. These rows are one share of the data; count on the stated rates, not on these rows.

SMILES	YopH inh	Mtb growth	Mtb betalactam	RecA intein inh	Arbovirus anti	others
O=C1c2ccc([N+](=O)[O-])cc2C(=O)N1c1ccc([N+](=O)[O-])cn1	/	/	-14	-1.1	/
O=C(c1c(F)cccc1F)N1CCN(c2ncc(Br)cn2)CC1	/	/	0	10	/
CCN(c1ccccc1)S(=O)(=O)c1ccc(Cl)nc1	/	-7%	-5	-0.8	-6
CCc1ccc(/C=C2/C(=O)N(CC)C(=S)N2C)s1	-14	8%	22	5.1	4
CCC(C)C(=O)Nc1nnc(SCC(=O)NC2CCCCC2)s1 (configuration not stated)	/	/	6	-0.5	/
O=C(CN1CCN(S(=O)(=O)N2CCCCC2)CC1)Nc1cc(Cl)ccc1Cl	/	/	0	19	/
O=C(Cn1c2c(c(=O)n3ncnc13)CCC2)N/N=C/c1cccs1	/	/	-13	-0.2	/
CCNC(=S)Nc1cccc(S(=O)(=O)NC2=NCCC2)c1	/	5%	-13	-0.8	9
C/C=C/Cn1c(SCc2ccccc2)nc2c1c(=O)[nH]c(=O)n2C	-44	4%	2	-1.2	-5
CCOC(=O)C(Oc1ccc(=O)[nH]n1)C(C)=O (configuration not stated)	-5	3%	-11	2.5	6
CN(C)c1nc(N)c([N+](=O)[O-])c(NCc2ccccc2)n1	-9	2%	2	0.1	7
N#Cc1c(N2CCN(C(=O)c3ccco3)CC2)nc(-c2ccccc2)c2c1CCCC2	1	9.5µM*	68	25	-11
CC(C)CCn1c(=O)c2ccccc2n2c(CCl)nnc12	/	64%	93	/	-26
Cc1cccn2cc(CNC(=O)CC3CCCC3)nc12	7	-2%	-12	0.6	4
CC(C)C1=CC(=Nc2ccc(S(N)(=O)=O)cc2)C=C(C(C)C)C1=O	/	/	3	-2.2	/
COc1ccc(NC(=O)Nc2cccs2)cc1OC	-4	-4%	-4	0.1	-5
Cc1cc(N2CCN(c3ccccc3)CC2)nc(-n2nc(C)cc2C)n1	-10	8.8µM*	97	-0.9	2
COc1ccc(CCNC(=O)c2ccc(-c3ccc([N+](=O)[O-])cc3Cl)o2)cc1	-23	37%	18	16	-7
COc1ccc(S(=O)(=O)NC(CC(=O)N2CCc3ccccc32)c2ccco2)cc1 (configuration not stated)	-93	3%	-12	1.8	-7
COc1ccc(OC)c(-n2c(-c3cccc(C)c3)n[nH]c2=S)c1	/	5%	-2	1.5	1
CCN(CC)C(=O)c1ccc(C(=O)c2c(C)cc(C)cc2C)cc1	13	2%	-3	-3.4	20
Cn1cc(SCC(=O)N2CCCc3ccccc32)c2ccccc21	-2	10%	-3	2.4	2
COCc1c(C(=O)N/N=C/C2CC=CCC2)nnn1-c1nonc1N (configuration not stated)	-29	0%	-1	-0.7	-1
COc1ccc(C)cc1NC(=O)C1CCN(S(=O)(=O)c2cccc3cccnc23)CC1	-27	-3%	10	5.1	6	Arbovirus anti repeat=7
COCCn1c(SCC#N)nnc1-c1ccccc1O	-21	-5%	-2	11	-2
OCCC1CN(Cc2ccccc2O)CCN1CCCc1ccccc1 (configuration not stated)	/	/	3	-1.2	/
O=C(CSc1nnc(COc2ccc(Cl)cc2Cl)o1)Nc1ccccn1	/	/	-2	-3.1	/
CCOC(=O)C1(CCc2ccccc2)CCN(Cc2ccc3c(c2)OCCO3)CC1	/	9%	55	4.3	-1
O=C1c2ccccc2CSc2c(O)cccc21	/	/	21	2.1	/
O=C(Nc1ccccc1F)C1CC1c1ccccc1 (configuration not stated)	-22	-2%	0	-4.2	-12

Continued; it opens with the three that closed the last part.
SMILES	YopH inh	Mtb growth	Mtb betalactam	RecA intein inh	Arbovirus anti	others
CCOC(=O)C1(CCc2ccccc2)CCN(Cc2ccc3c(c2)OCCO3)CC1	/	9%	55	4.3	-1
O=C1c2ccccc2CSc2c(O)cccc21	/	/	21	2.1	/
O=C(Nc1ccccc1F)C1CC1c1ccccc1 (configuration not stated)	-22	-2%	0	-4.2	-12
COc1ccc(-n2cc(-c3ccccc3)[nH]c2=S)c(OC)c1	/	/	2	1.2	/
Cn1cc(CN2CCc3c([nH]c4ccccc34)C2C(C)(C)C)cn1 (configuration not stated)	/	2%	5	-1.4	-4
O=C(Nc1cccc2ncccc12)C(Cl)(Cl)Cl	11	1%	1	-0.6	11
Cc1ccccc1Nc1n[nH]c(C)c1[N+](=O)[O-]	-29	7%	-1	-1.1	-1
CCOC(=O)N1CCN(C(=S)Nc2cccc(C)c2C)CC1	-25	8%	0	0.1	0
COc1ccccc1NC(=O)Cn1nc(-c2ccc3c(c2)OCCO3)ccc1=O	/	-5%	9	0.7	-3
C/C(=N\NC(=O)C(N)=O)c1cccc([N+](=O)[O-])c1	/	-1%	-5	-0.6	6
COc1ccc(N(C)C(=O)c2cn(CC(C)C)c(=O)c3cc(OC)c(OC)cc23)c(OC)c1	/	/	-5	-0.7	/
O=C(CCN1C(=O)/C(=C/c2ccccc2Cl)SC1=S)NC1=NCCS1	/	-6%	2	-1.6	-1
O=c1c2ccccc2c(-c2ccc(O)cc2)nn1-c1cccc(C(F)(F)F)c1	-17	10%	10	12	-17
Clc1ccc2c(N/N=C/c3cccc(Br)c3)ccnc2c1	-35	?	89	-1.5	-32
Cc1nc(NCCc2ccc(F)cc2)c(C#N)c(C)c1[N+](=O)[O-]	-17	1%	-3	0.4	2
COCCn1c(CN2CCc3ccccc3C2)nc2c1c(=O)n(C)c(=O)n2C	/	-1%	-10	2.4	4
Cc1ccc(F)c(NC(=O)/C(C#N)=C(\O)c2ccc(C(C)(C)C)cc2)c1	/	9%	0	23	15
N=c1c2c(ncn1Cc1ccco1)Oc1c(ccc3ccccc13)C2c1ccccc1 (configuration not stated)	-22	3.9µM*	99	7.2	-31
Cc1nc(SCC(=O)Nc2cccc(Cl)c2)n[nH]1	-63	-3%	-8	0.6	4	Arbovirus anti repeat=-3
CC(C)(C)OC(=O)NCCC(=O)Oc1ccc2ccc(=O)oc2c1	7	/	5	-63	13
Cc1cccn2c(=O)c(/C=C(\C#N)S(=O)(=O)c3ccccc3)c(N3CCC(C(N)=O)CC3)nc12	-21	-2%	10	-2.5	-4
CCc1ccc(C(=O)Nn2cnc3ccccc3c2=O)cc1	/	/	-2	-1.3	/
CCN(CC)C(=O)Oc1nnc(SC(C)C)n1-c1ccc(Cl)c(Cl)c1	/	10%	-5	-0.3	/
Cc1ccc[n+](-c2nc([O-])sc2C=O)c1	/	3%	-6	/	0
O=C(CCN1C(=O)[C@@H]2Cc3ccccc3CN2C1=O)N[C@H](Cc1ccccc1)C(=O)O	/	/	-2	-2.4	/
Cc1cc(C)c(C(N)=O)c(Nc2cccc(Cl)c2)n1	-16	-3%	10	0.1	3
Cc1nc2c(sc3nc4c(cc32)COC(C)(C)C4)c(=O)n1Cc1ccccc1	-4	3%	-5	-1.8	6
Cc1ccc(C)n1-c1ccc(C(=O)N2CCC(C(N)=O)CC2)cc1	/	5%	/	-1.9	-1
Cc1ccc(C(=O)NC(C)c2ccc(-n3ccnc3)cc2)cc1 (configuration not stated)	/	/	-7	-0.7	/
Cc1ccc(NC(=O)Cn2ccc(=O)[nH]c2=O)cc1	/	/	-6	-1.0	/
Cc1nc(CNC(=O)C2CCC(=O)N(CCc3ccc(Cl)cc3)C2)sc1C (configuration not stated)	/	/	-3	-1.3	/
COc1ccc(S(N)(=O)=O)cc1C(=O)NCC1(N2CCCCC2)CCCCC1	-49	-6%	-13	-1.8	8
O=C(COc1ccc(/C=N/NC(=O)c2cc3ccccc3o2)cc1Cl)Nc1ccccc1	-19	5%	6	-1.5	-40
O=C(NCc1cccnc1)Nc1ccccc1C(F)(F)F	/	/	-10	0.2	/
CC(=O)c1ccc(N2C(=O)[C@@H]3C(C(=O)CCN4C(=O)c5ccccc5C4=O)=NN[C@@H]3C2=O)cc1	-22	-2%	0	1.5	-3
COc1ccc(C(=O)COC(=O)C(CCSC)NC(=O)COc2ccccc2)c(OC)c1 (configuration not stated)	/	/	11	-0.3	/
CC(C)C(c1nnnn1C1CCCC1)N1CCCCC1 (configuration not stated)	-20	-4%	-6	2.1	8
COc1ccc(-c2nnc(SCc3cccnc3)o2)cc1	-13	-2%	4	-3.4	6
COC(=O)C(C)Sc1nc2c(c(-c3ccc(OC)cc3)c1C#N)-c1ccccc1C2=O (configuration not stated)	-27	-3%	?	1.2	/
COc1cc2c(cc1OC)C(c1ccccc1[N+](=O)[O-])N(C(C)=O)CC2 (configuration not stated)	/	/	8	-2.8	/
O=c1[nH]nc(N/N=C/c2ccc(Cl)cc2Cl)c(=O)[nH]1	/	-4%	5	-5.7	/
CC1(C)CC(=O)C(C(C2=C(O)CC(C)(C)CC2=O)c2ccc(O)c([N+](=O)[O-])c2)=C(O)C1	/	-2%	66	-0.7	2
Cc1ccc2cc3cc(C(=O)NCCCN4CCCCCC4)oc3nc2c1	-43	/	-1	0.7	-8
O=C(O)c1ccc([N+](=O)[O-])c(CS(=O)(=O)c2ccccc2)c1	/	/	-6	-3.4	/
O=C(CCCc1cccs1)Nc1nc(-c2ccc(F)cc2)cs1	-6	4%	3	4.0	9
Cn1c(Sc2ccc([N+](=O)[O-])cc2C(F)(F)F)nnc1-c1ccccc1	-21	-5%	7	3.7	-4
O=C(NCCN1CCOCC1)c1ccncc1	-31	-2%	-1	-0.3	4
Cn1c(Cl)c(C(=O)Nc2ccc(Cl)cc2)c2ccccc21	-17	-18%	8	/	-13
Cn1nccc1C(=O)N(CCN1CCCCC1)CC1CCCN(C2CCCC2)C1 (configuration not stated)	/	/	?	0.6	/
O=C(O)c1cn(-c2ccccc2)nc1-c1ccc(F)cc1	/	/	-2	0.5	/
Cc1nc2ccccc2c2oc(C(=O)Nc3ccc(C(C)C)cc3)cc12	/	14%	97	5.5	-31
Cc1ccc(OCC(=O)c2c(O)c3ccccc3oc2=O)cc1C	-12	-7%	44	-1.2	12
CCSc1nnc(NS(=O)(=O)c2ccc(C)cc2)s1	-19	56%	1	0.8	1

Pulled one by one from above (2):
SMILES	YopH inh	Mtb growth	Mtb betalactam	RecA intein inh	Arbovirus anti	others
Cn1c(Cl)c(C(=O)Nc2ccc(Cl)cc2)c2ccccc21	-17	-18%	8	/	-13
O=C(CCCc1cccs1)Nc1nc(-c2ccc(F)cc2)cs1	-6	4%	3	4.0	9

More compounds
SMILES	YopH inh	Mtb growth	Mtb betalactam	RecA intein inh	Arbovirus anti	others
COc1cc2c(cc1OC)C(c1cccc(Cl)c1)CC(=O)N2 (configuration not stated)	/	/	-3	0.9	/
COC(=O)Cn1c2ccc(OC)cc2c2nc(C)sc21	/	2%	52	4.1	/
COCC(=O)NCc1ccc2c(c1)cc(C)n2C	-23	0%	-5	/	0
O=C(CSc1nnc(COc2ccccc2)n1Cc1ccco1)c1ccc(F)cc1	0	1%	1	15	4
COc1ccc(S(=O)(=O)NC2CC(C)(C)NC(C)(C)C2)cc1	/	/	-5	-1.3	/
CCOC(=O)C1=C(C)NC2=C(C1c1ccc([N+](=O)[O-])cc1)S(=O)(=O)c1ccccc12 (configuration not stated)	-10	0%	1	1.6	-5
COc1ccc(NC(=O)C(C)N2CCN(C)CC2)cc1 (configuration not stated)	/	/	2	-3.8	/
O=C(c1ccc(Br)o1)N(Cc1ccccc1)Cc1ccccc1	-10	/	2	18	1
c1ccc(C2=Nn3c(nnc3-c3cc(-c4ccccc4)n[nH]3)SC2)cc1	-28	7%	21	2.7	0
CC(C)CNC(=O)COC(=O)c1ccccc1OCC(=O)Nc1ccc(Br)cc1	-23	0%	16	1.5	-3

Grouped by structure: the entries above with a CF3 group (three)
SMILES	YopH inh	Mtb growth	Mtb betalactam	RecA intein inh	Arbovirus anti	others
O=c1c2ccccc2c(-c2ccc(O)cc2)nn1-c1cccc(C(F)(F)F)c1	-17	10%	10	12	-17
O=C(NCc1cccnc1)Nc1ccccc1C(F)(F)F	/	/	-10	0.2	/
Cn1c(Sc2ccc([N+](=O)[O-])cc2C(F)(F)F)nnc1-c1ccccc1	-21	-5%	7	3.7	-4

Assay outcomes (PubChem)
